Anaer choline gr: blocks anaerobic gram-negative growth on choline | Gram-negative bacterium anaerobic choline minimal medium, absorbance growth; stronger effect = lower value; many inactives read as strong as hits in the columns shown | calls only | 55,000 tested, 0.2% active | AID 1963822;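 active means growth z-score on choline under -2 at 7 or 20 h with little or no fall on glycerol, limits in tiers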;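 further: stock transfer was 300 nL into about 50 µL; the organism is E. coli; final concentration not given here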
Anaer choline gr early: second read-out of Anaer choline gr, no call of its own (marks repeat the call); z-score; measured here: choline growth z-score, timepoint 1;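 score of optical density at 7 h as mean of two plates; lower means less growth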
* hit, by the source's call; i = inactive; & = joins results of further samples. An excerpt, so the mix of outcomes need not match the whole.

smiles	Anaer choline gr	Anaer choline gr early
CCc1ccc(CNC(=O)C2Cc3ccccc3CN2S(=O)(=O)c2ccc(C)cc2)cc1 (stereo unspecified)	i	0.24
CC(C)n1c(N2CCCN(C(=O)C3CCCO3)CC2)cc(=O)n(C(C)C)c1=O (stereo unspecified)	i	-1.6
Cc1cc(SCC(=O)N2CCc3ccccc32)nc2ccc(S(=O)(=O)N3CCC(C)CC3)cc12	i	0.77
O=C(Nc1ccccc1F)c1cnn(-c2ccc(Br)cc2)c1	i	1.4
Cc1cc2c3c([nH]c2cc1S(=O)(=O)Nc1ccc(S(N)(=O)=O)cc1)CCCC3=O	i	0.64
Cc1nn(-c2nc3ccccc3n2C)c2c1C(c1cc(Cl)ccc1F)CC(=O)N2 (stereo unspecified)	i	-0.19
Cc1ccc(CNc2ccc(S(=O)(=O)C(C)(C)C)nn2)cc1	i	0.19
COc1ccc(Br)cc1-c1nc(CSc2nc(C)cc(=O)[nH]2)c(C)o1	i	-0.36
CCOc1ccccc1N1CCN(C(=O)c2sc3ncccc3c2-n2cccc2)CC1	i	-0.1
CC(C)N(C(=O)Cc1c(O)c2ccccc2[nH]c1=O)C(C)C	i	-0.43
CC1CCN(S(=O)(=O)c2cc(C(=O)N3CCOCC3)cs2)CC1	i	-0.09
O=S(=O)(c1cc(F)ccc1F)N1CCCC1c1cccc(F)c1 (stereo unspecified)	i	0.78
COC(=O)c1ccc2c(=O)n(-c3ccc4c(c3)OCO4)c(N3CCN(c4ccccc4)CC3)nc2c1	i	-2.2
CCSc1nnc(-c2nn(C)c3c2CN(C(=O)Nc2ccc(OC)cc2)CC3)n1CC	i	-0.27
CCN(CC)c1nc2ccsc2c(=O)n1CC(=O)NC1CCCC1	i	0.45
CN1CCc2c(sc3c2CN(C(=O)Nc2cc(F)ccc2F)C(c2ccc(F)cc2)c2cccn2-3)C1 (stereo unspecified)	i	-0.12
O=S(=O)(c1cccc2nsnc12)N1CCC(n2cnc3cccnc32)CC1	i	-0.57
CCOC(=O)c1c(C)n(-c2ccc(C)cc2)c2ccc(OCC(O)Cn3cnc4ccccc43)cc12 (stereo unspecified)	i	1.4
CC1(C(=O)NCc2ccc3c(c2)OCO3)CCN(C(=O)C2CCC2)CC1	i	-0.61
COCCCNC(=O)CC1Oc2ccccc2NC1=O (stereo unspecified)	i	1.1
Cc1nn(CC(=O)NC2CC2)c(=O)c2noc(C)c12	i	-0.03
CCc1ccc(N(C)S(=O)(=O)c2ccsc2C(=O)n2nc(C)cc2C)cc1	i	-1.2
Fc1ccc(CSc2nccn3nc(-c4ccc(Br)cc4)cc23)cc1	i	2
Cc1nn(-c2nc3ccccc3o2)c2c1C(c1ccccc1Cl)CC(=O)N2 (stereo unspecified)	i	0.54
O=C(Cn1nc(N2CCN(c3ccccc3)CC2)ccc1=O)NC1CCCC1	i	-0.36
Cc1cc(OCC(O)Cn2c(C3CC(=O)N(C(C)(C)C)C3)nc3ccccc32)ccc1Cl (stereo unspecified)	i	-0.84
Cc1c(CCNC(=O)c2ccc(F)cc2)sc2nc(-c3ccccc3)nn12	i	0.75
Cc1ccccc1NC(=O)Cn1nc(C(=O)Nc2ccccc2)ccc1=O	i	0.6
COC(=O)c1nc2ccccc2nc1N1CCN(c2cccc(Cl)c2)CC1	i	0.87
CCc1ccc(-c2noc(CSc3nc4cc5c(cc4c(=O)n3CCOC)OCO5)n2)cc1	i	2.2
CC1CS(=O)(=O)N(c2ccc(S(=O)(=O)N(C)C3CCS(=O)(=O)C3)cc2)C1=O (stereo unspecified)	i	0.29
O=C(Nc1cccc(-c2nnc(-c3ccccc3)o2)c1)Nc1cc(F)ccc1F	i	1.2
CCN(CC)CCCNc1cc(C(=O)O)c2ccccc2n1	i	-0.13
CCCCNS(=O)(=O)c1ccc(N2C(=O)CCS2(=O)=O)cc1	i	-0.14
CC(=O)Nc1ccc2nc(N3CCC(C(=O)N4CCCCC4)CC3)cc(C)c2c1	i	-1.1
Cn1cnc2c(=O)oc3ccc(S(=O)(=O)NCc4ccccc4)cc3c21	i	1.7

An excerpt from above in order of number of heavy atoms, highest first:
smiles	Anaer choline gr	Anaer choline gr early
O=C(Cn1nc(N2CCN(c3ccccc3)CC2)ccc1=O)NC1CCCC1	i	-0.36
Cc1c(CCNC(=O)c2ccc(F)cc2)sc2nc(-c3ccccc3)nn12	i	0.75
Cn1cnc2c(=O)oc3ccc(S(=O)(=O)NCc4ccccc4)cc3c21	i	1.7

More records follow:
smiles	Anaer choline gr	Anaer choline gr early
CCN(CC)S(=O)(=O)c1ccc2nc(NCc3ccc4c(c3)OCO4)cnc2c1	i	0.51
CCOC(=O)c1c(CN2CCN(C)CC2)n(-c2ccccc2)c2ccc(O)cc12	i	-1.6
CCOC(=O)Cn1c(N2CCCCC2)nc2c1c(=O)[nH]c(=O)n2C	i	1.1
Cc1onc(-c2ccccc2)c1C(=O)O	i	0.11
O=C(CSc1ncc(CO)n1CC(=O)NC1CCCC1)Nc1ccc(Br)cc1	i	-0.34
CCc1ccccc1NC(=O)Nc1ccc2c(c1)oc(=O)n2C	i	0.25
Cc1ccc(S(=O)(=O)N2C(=O)CCC2C(=O)N(Cc2nc(-c3ccccc3)no2)C(C)C)cc1 (stereo unspecified)	i	0.07
CC(C)Cc1nc2n[nH]c(N)c2c2c1COC(C)(C)C2	i	-1.4
CCOC(=O)c1c(C)c(S(=O)(=O)NC2CCC(C)CC2)c(C)n1C (stereo unspecified)	i	-1
CCCCN(CC)C(=O)c1cc(NC(=O)C(C)(C)C)cnc1N1CCNCC1	i	0.11
Cc1cccc(NC(=O)COc2cccc(-c3nc(-c4ccccc4)no3)c2)c1	i	0.73
CCOC(=O)c1c(NC(=O)CSc2nnc3cc(C)c4cccc(OC)c4n23)sc(C)c1C	i	0.58

Quoted at random: 4 records from the list, in no set order.
smiles	Anaer choline gr	Anaer choline gr early
CCOC(=O)c1c(NC(=O)CSc2nnc3cc(C)c4cccc(OC)c4n23)sc(C)c1C	i	0.58
Cc1cccc(NC(=O)COc2cccc(-c3nc(-c4ccccc4)no3)c2)c1	i	0.73
Cc1onc(-c2ccccc2)c1C(=O)O	i	0.11
CC(C)Cc1nc2n[nH]c(N)c2c2c1COC(C)(C)C2	i	-1.4

(next part)
smiles	Anaer choline gr	Anaer choline gr early
CCc1nn2c(=O)cc(CN(CC)c3cccc(C)c3)nc2s1	i	-0.87
Cc1nc(CCNC(=O)[C@H]2CSCN2S(=O)(=O)c2cc(C)c(C)cc2C)cs1	i	0.33
O=C(COc1ccccc1)Nc1noc(-c2ccc(Cl)cc2)n1	i	-0.68
O=C(O)C[C@H](O)C[C@H](O)/C=C/c1c(C2CC2)nc2ccccc2c1-c1ccc(F)cc1	i	0.5
Cc1cc(C)c(S(=O)(=O)NCc2cn3ccsc3n2)c(C)c1	i	0.63
C=CCn1c(SCC(=O)OC(C)C)nc2c(-c3ccccc3)cn(C)c2c1=O	i	0.38
CN(C)c1ccc(CC2C(=O)N(C)c3ccc(Br)cc32)cc1 (stereo unspecified)	i	0.49
O=C(NCC1CCCO1)c1cc(-c2ccccc2)c(N2CCCCC2)s1 (stereo unspecified)	i	-0.61
Cc1ccc(CNC(=O)CSCc2nc3cccnc3n2C2CCCCC2)cc1	i	-0.53
Cc1ccc(Cn2nc3c(S(=O)(=O)N4CCc5ccccc5C4)cccn3c2=O)cc1	i	-0.02
Cc1oc2ncn3nc(-c4ccc(F)cc4)nc3c2c1C	i	-0.45
O=c1n(CCc2ccccc2)nc2c(S(=O)(=O)N3CCN(c4ccc(F)cc4)CC3)cccn12	i	-1.4
Cc1cc(C)nc(SCCCn2c(N3CCC(C)CC3)nc3c2c(=O)[nH]c(=O)n3C)n1	i	-0.18
CCc1noc2nc(CCC(=O)NC3CCCCC3)nc(N3CCCCC3)c12	i	-0.16
Cc1ccc(NC(=O)Cn2nc(C(=O)Nc3ccccc3)ccc2=O)cc1	i	-1.2
N=C1C(c2nc3ccccc3s2)=C(O)CN1c1cccc(C(=O)NCCc2c[nH]c3ccccc23)c1	i	3.2
Cc1cc(=O)[nH]c(Nc2ccc(C)c(Cl)c2)n1	i	-0.4
Cc1ccc(C(=O)NCCc2nc(-c3ccccc3)n[nH]2)cc1	i	-0.91
COc1ccc(N2CCN(S(=O)(=O)c3cc(-c4nc(C)c(C)s4)sc3C)CC2)cc1	i	-0.27
COc1ccc(-n2nnnc2C2CCN(S(=O)(=O)c3ccc(C(C)(C)C)cc3)CC2)cc1	i	0
Oc1cccc(-c2nc3cnc(Br)cn3c2Nc2ccc3c(c2)OCCO3)c1	i	0.93
COc1ccc(-n2ccn(CC(=O)Nc3ccc4c(c3)OCO4)c2=O)cc1	i	2.2
CC(=O)Nc1cccc(-c2nn3c(C)nnc3s2)c1	i	0.17
Cc1cccc(NS(=O)(=O)c2cc(-c3cc(C(F)(F)F)on3)sc2C)c1C	i	1.1
O=S(=O)(c1ccc(F)cc1)c1nc(-c2ccc(Cl)cc2)oc1NC1CC1	i	0.7
COc1ccc(NC(=O)c2nnc(CSCC(=O)NCc3cccnc3)s2)cc1	i	-0.82
CN(CC(=O)Nc1ccc(F)cc1Cl)S(=O)(=O)c1cc2c(cc1Cl)NC(=O)CO2	i	-0.12
CC(C)Oc1ccc(-c2noc(-c3cc(-c4ccccc4)n[nH]3)n2)cc1	i	0.37
CCCCC(=O)Nc1ccc2nc(N3CCCC3)cc(C)c2c1	i	-0.53
CCCNC(=O)CCc1c(C)n(C)c2nc(-c3ccccc3)nn2c1=O	i	-1.3
CCCCN1C(=O)C2(CCOCC2)Nc2ccccc21	i	-0.46
Cc1ccccc1-c1cc2n(C)c(C)c(CCC(=O)NCCC(C)C)c(=O)n2n1	i	0.24
Cc1nn(C(=O)C(C)(C)C)c(C)c1S(=O)(=O)N1CCOCC1	i	-0.77
CCCN1CCCn2c1nc1c2c(=O)[nH]c(=O)n1C	i	0.49
COc1ccc(-c2nc3c(s2)CN(C(=O)Nc2ccc(C)cc2C)CC3)cc1	i	0.84
CCOCC(=O)N1CCc2c(c(C(=O)N3CCCC(C(=O)N(CC)CC)C3)nn2C)C1 (stereo unspecified)	i	1.4
C=CC(=O)c1ccc2ccccc2c1	i	0.9
Cc1noc2ncnc(N3CCC(C(=O)NCc4ccccc4)CC3)c12	i	0.21
CCOc1ccc(NS(=O)(=O)c2cc(C(=O)N3CCN(c4ccc(C)cc4C)CC3)n[nH]2)cc1	i	1.1
Cc1[nH]c(C)c(S(=O)(=O)N2CCC(C(=O)Nc3ccc(Cl)cc3)CC2)c1C(=O)N1CCCC1	i	-1.9
C=CCNC(=O)C1CCCN(C(=O)c2ccc(NS(=O)(=O)c3ccc4c(c3)CCCC4)cc2)C1 (stereo unspecified)	i	-0.95
CCC(C)NC(=O)CN1C(=O)C(C)(C)c2cc(S(=O)(=O)N3CCCC3)ccc21 (stereo unspecified)	i	-0.16
CCOc1ccc(S(=O)(=O)Nc2ccc(-c3nnc(-c4ccccc4)o3)cc2)cc1	i	-1.3
Cc1cc(C2CCCN2Cc2cn(C(C)C)c3ccccc23)no1 (stereo unspecified)	i	0.21
CCNC(=O)c1nn(-c2ccccc2)nc1CO	i	-0.97
CCc1c(C)nc(-n2nc(C)cc2NC(=O)c2ccc(C)c(C)c2)[nH]c1=O	i	-0.83
COCCNC(=O)c1ccc2c(c1)nc1n2CCCCC1	i	-1.3
CCCCCCOc1ccc(Cn2cccc2C2=NC(CC)CO2)cc1 (stereo unspecified)	i	0.36
CC(=O)Nc1ccc(-c2noc(C3CCCN(C(=O)c4cccc5[nH]ccc45)C3)n2)cc1 (stereo unspecified)	i	-1.7
CCN1CCN(S(=O)(=O)c2cc(-c3nnc(C4CC4)o3)co2)CC1	i	1.3
O=C1CN2Cc3c(ccc(Cl)c3Cl)N=C2N1	i	0.01&0.22&-0.21&0.46
CCCCC1CCC(C(=O)Nc2nnc3n2CCCS3)CC1 (stereo unspecified)	i	-0.19
COc1ccc(C(=O)NCCc2c[nH]c3ccccc23)cc1	i	-1
CC(C)c1ccc(N(C)S(=O)(=O)c2ccsc2-c2nc(-c3ccc4c(c3)OCO4)no2)cc1	i	0.78
CCOC(=O)c1cc2n(n1)CC(C)(C(=O)NC1CCC(C)CC1)N(c1ccc(NC(C)=O)cc1)C2=O (stereo unspecified)	i	-0.44
COc1ccc(S(=O)(=O)N2CCc3cc4ccccc4nc32)cc1Cl	i	2
CCS(=O)(=O)N1CCCN(C(=O)NC)CC1	i	0.05
Cc1cc(N2CCCC2)nc(N2CCN(C(=O)C3CCCCC3)CC2)n1	i	-0.58
O=c1[nH]c(SCc2nc(-c3ccc(Cl)cc3)no2)nc2ccsc12	i	0.95
O=S(=O)(c1ccc(F)cc1)N1CCCN(c2nc3cc(Cl)ccc3n3cccc23)CC1	i	0.29

New compounds follow
smiles	Anaer choline gr	Anaer choline gr early
Cc1ccc(Cc2c(C)nc3nc(CN4CCC(C)CC4)[nH]n3c2=O)cc1	i	-0.42
COc1ccc(-c2nc3cnccn3c2Nc2ccc3c(c2)OCO3)cc1OC	i	-0.31
O=C(c1cc2cccnc2n(Cc2ccccc2)c1=O)N1CCOCC1	i	-1.6
Cc1cccc(CNC2=NCCNC23CCCC(C)C3)c1 (stereo unspecified)	i	-0.18
O=c1oc2cc(O)c(O)cc2c2c1CCCC2	i	-0.62

Assay outcomes deposited in PubChem by ICCB-Longwood Screening Facility, Harvard Medical School.
